Screening results (PubChem)
MT1-MMP reporter: inhibitors of MT1-MMP promoter transcription, cell-based, luciferase reporter, luminescence (AID 618). MT1-MMP promoter luciferase reporter cells, luminescence. calls from a first round at 10 µM; hits with a dose series show EC50 in µM. 87,000 compounds, 0.62% hits;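 active = over half of the reporter light lost at 10 µM or EC50 under 50 µM; inactive = the rest and hits that failed the dose series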;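 also: actives suppress MT1-MMP promoter-driven transcription so potencies describe inhibitors; HT1080 fibrosarcoma cells; overnight exposure; toxic or luciferase-blocking compounds were not removed from the actives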
Hsc70 ATP site: small molecules displacing fluorescent ligand from Hsc70 – biochemical, fluorescence polarization, primary screen (AID 568); Hsc70 fluorescence polarization, probe displacement; higher % means a stronger effect; strong numbers were not always called active; displacement, % at 20 µM, or IC50 in µM where a hit was titrated; 83,000 tested, under 10 active;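 active = displacement above 50% without optical interference and an IC50 on retest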;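 also: ATPase domain with a fluorescein-tagged ATP probe; 0% = vehicle and 100% = excess ADP; read after one hour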
WNV protease inh: WNV NS2B-NS3 proteinase inhibition; z-score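 (tested at a level between 10 and 100 µM)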; 65,000 compounds, 0.18% hits; WNV NS2B-NS3 protease, fluorogenic substrate Ex360/Em465; hits give low values; P06935;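 active = z-score at -3 or under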;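 also: score is relative to mean and spread of the compound wells of a plate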
Target sequence (P06935 1371-1501 limits assumed): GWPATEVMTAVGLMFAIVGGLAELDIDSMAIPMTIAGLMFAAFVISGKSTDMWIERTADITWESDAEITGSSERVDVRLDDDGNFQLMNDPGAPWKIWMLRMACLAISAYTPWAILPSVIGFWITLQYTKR
Target sequence (P06935 1502-1679 limits assumed): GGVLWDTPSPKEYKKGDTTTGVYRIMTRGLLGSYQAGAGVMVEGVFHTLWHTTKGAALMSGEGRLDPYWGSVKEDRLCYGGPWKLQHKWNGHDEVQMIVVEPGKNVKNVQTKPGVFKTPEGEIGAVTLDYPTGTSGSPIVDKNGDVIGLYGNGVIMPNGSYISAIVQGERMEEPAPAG
An asterisk follows results filed as active; i = inactive; . = not tested or not shown. This is a subset; the hit share may differ from the screen's.

Order of values – MT1-MMP reporter	Hsc70 ATP site	WNV protease inh
O=S(=O)(Cc1ccccc1Cl)N1CCN(Cc2ccc3c(c2)OCO3)CC1
 : i	-8.0%	-0.58
CCN1C(=O)/C(=C\N(C(C)=O)c2ccccc2)OC1=S
 : i	-3.7%	.
O=C(c1cccs1)N1CCC(c2nc3c(nnn3Cc3ccccc3)c(=O)[nH]2)CC1
 : i	0.6%	1.73
CCOC(=O)NC1(C(F)(F)F)C(=O)N(Cc2ccccn2)C2=C1C(=O)CC(C)(C)C2 (stereo not given)
 : i	7.1%	0.87
CCOC(=O)c1nc(S(C)(=O)=O)ncc1Cl
 : i	-6.2%	-1.38
Cc1c2cnn(CC(=O)N3CCN(c4ncccn4)CC3)c(=O)c2c(C)n1Cc1ccc(F)cc1
 : i	-2.0%	1.09
CN1CCN(C2=C(Cl)C(=O)C(c3cnc(N4CCCCC4)s3)=C(Cl)C2=O)CC1
 : i	0.6%	.
COC(=O)c1ccn(C(=O)c2ccc(Cl)cc2)n1
 : i	0.8%	-0.35
COc1cc(NC(=O)C(C)Oc2ccccc2)cc(OC)c1 (stereo not given)
 : i	2.6%	-0.38
COc1ccc(NC(=O)c2ccco2)cc1NC(=O)c1ccco1
 : i	-3.8%	-0.82
CC(C(=O)NC1CCCCCC1)N(c1ccccc1)S(C)(=O)=O (stereo not given)
 : i	5.1%	1.18
CC1(C)Cc2c(c(-c3ccccc3)nc(N3CCOCC3)c2C(N)=O)CO1
 : i	-0.7%	.
COc1ccc(CC(=O)OCC(=O)NC(=O)NC2CCCCC2)cc1
 : i	-0.7%	0.92
COc1ccc(OC)c(C(=O)COC(=O)CNC(=O)C2CCCCC2)c1
 : i	2.7%	1.28
Cc1ccc(OCC(=O)Nn2cnnc2)c(Br)c1
 : i	5.3%	.
CCOC(=O)C1CCCN(C(=O)c2sc3nc(C)nc(N4CCOCC4)c3c2C)C1 (stereo not given)
 : i	0.5%	-0.09
Cc1nn(C)c(C)c1CNC(=O)c1cnn2c1NC(c1ccccc1)CC2C(F)(F)F (stereo not given)
 : i	-2.4%	-1.38
CS(=O)(=O)N(CC(=O)N1CCCCCC1)c1ccc(Br)cc1
 : i	1.4%	-0.03
CCOC(=O)N1CCN(C(=O)c2cnc(Nc3ccccc3OC)c3ccccc23)CC1
 : i	-3.0%	-0.62
CCOC(=O)c1c(C)n(C)c2ccc(OC)c(NC(=O)CN3CCSCC3)c12
 : i	-0.4%	0.52
COc1ccc(N(C(=O)c2ccco2)C(C(=O)NC2CCCCC2)c2cccs2)cc1OC (stereo not given)
 : i	-5.6%	.
O=C(OCC(=O)N1CCc2ccccc21)c1ccc[n+]([O-])c1
 : i	1.3%	-1.76
Cc1cc(C)n(CNc2nc(C(F)(F)F)cs2)n1
 : i	-4.0%	-1.4
CC(C)(C)NC(=O)C(c1ccncc1)N(Cc1cccs1)C(=O)Cn1nnc(-c2cccs2)n1 (stereo not given)
 : i	1.2%	-1.16
COc1ccc(NC(=O)Nc2cccc3cccnc23)cc1
 : i	-1.4%	-0.61
Cc1cc(NC(=O)CCC(=O)N(CC(=O)NCC2CCCO2)Cc2ccc(F)cc2)no1 (stereo not given)
 : i	-1.8%	.
COc1ccc(C2C=C(c3ccccc3)Nc3nnnn32)cc1 (stereo not given)
 : i	-1.8%	1.62
CCN(CC)CCCCCOc1ccccc1OC
 : i	4.2%	1.2
CCN(CC)C(=O)CSc1nc2ncc(Br)cc2[nH]1
 : i	-9.6%	0.48
Cc1c(NC(=O)C(C)OC(=O)C(NC(=O)c2ccco2)C(C)C)c(=O)n(-c2ccccc2)n1C (stereo not given)
 : i	0.1%	0.45
CCOc1ccc(N2CC(C(=O)OC)CC2=O)cc1 (stereo not given)
 : i	-1.5%	-0.92
COC(=O)Cc1c(C)nc2nc[nH]n2c1=O
 : i	3.0%	0.38
O=C(NCc1ccc2c(c1)OCO2)c1nnc(Cc2ccc(F)cc2)o1
 : i	-2.7%	-0.44
CCOc1ccc(C(=O)OCc2nnc(-c3cccs3)o2)cc1OC
 : i	3.2%	0.35
Cc1cc(NC(=O)Nc2cccs2)no1
 : i	-0.3%	0.93
COc1ccc(C(=O)CSc2nnc(-c3cccnc3)n2Cc2ccco2)cc1
 : i	-4.0%	0.34
COc1ccc(OC)c(NC(=O)C(CC(=O)O)Cc2ccc(Cl)cc2)c1 (stereo not given)
 : i	0.5%	.
CCn1ncc(CNC(=O)CCCSc2nc(-c3ccco3)cc(C(F)(F)F)n2)c1C
 : i	-3.6%	.
COc1cccc(CNn2cnnc2)c1OCc1ccccc1F
 : i	-0.7%	-0.94
Cc1ccc(S(=O)(=O)NC2CCOC(C)(C)C2)cc1 (stereo not given)
 : i	-1.7%	1.11
Cc1ccc(S(=O)(=O)Nc2ccccc2CNc2c(C)n(C)n(-c3ccccc3)c2=O)cc1
 : i	2.5%	-0.32
COc1ccc(C(=O)c2oc3nc(C)cc(C)c3c2N)cc1
 : i	-19.1%	0.7
O=C(N1CCCC1)C12CC3CC(CC(C3)C1)C2
 : i	4.4%	.
Cc1ccc(N(CC(=O)NCc2ccco2)S(=O)(=O)c2ccccc2)cc1
 : i	1.9%	0.86
COc1ccccc1NC(=O)CSc1nnc(CC(=O)Nc2ccccc2)n1C
 : i	-0.5%	0.15

As a short view, 2 of the compounds above.
Order of values – MT1-MMP reporter	Hsc70 ATP site	WNV protease inh
Cc1ccc(N(CC(=O)NCc2ccco2)S(=O)(=O)c2ccccc2)cc1
 : i	1.9%	0.86
COc1ccccc1NC(=O)CSc1nnc(CC(=O)Nc2ccccc2)n1C
 : i	-0.5%	0.15

Additional structures follow.
Order of values – MT1-MMP reporter	Hsc70 ATP site	WNV protease inh
Cc1cccc2cc3c(NC(=O)CC(C)C)nn(C)c3nc12
 : i	1.4%	0.02
CCOc1cc(C)c(-c2onc(C(F)(F)F)c2-c2csc(C)n2)c(O)c1
 : i	4.6%	.
O=C(C1COc2ccccc2O1)N1CCCC1 (stereo not given)
 : i	2.9%	0.76
CCOC(=O)C(NC(=O)c1ccccc1OCC)(Nc1ncccn1)C(F)(F)F (stereo not given)
 : i	-3.9%	0.71
O=C(Cn1c(N2CCN(c3ccccc3)CC2)nc2ccccc21)c1ccccc1
 : i	5.2%	1
COc1ccc(/C=N/n2c(-c3ccco3)nc3ccccc3c2=O)cc1
 : i	-6.5%	.
CCCc1nc2c(o1)CC(CC(C)SCC)CC2=O (stereo not given)
 : i	4.1%	-0.1
CC(C)NC(=O)C1CCN(C(=O)N(C)C)CC1
 : i	3.1%	-0.47
CCOc1c(C#N)c(C#N)c2nc(C)cc(C)n12
 : i	-3.8%	0.74
COc1ccc(NC(=O)CC(=O)Nc2ccc(OC)cc2OC)c(OC)c1
 : i	2.9%	-0.96
O=C(CN1C(=O)CC(c2ccccc2)=Nc2ccccc21)NCc1ccccc1
 : i	-1.5%	.
Cc1cc(C(C)(C)C)ccc1OCCn1ccnc1
 : i	0.6%	.
CCn1c(SCC(=O)N2CCCc3ccccc32)nnc1-c1c[nH]c2ccccc12
 : i	-3.8%	0.92
C=C(Cl)COc1ccc2c(CCCC)cc(=O)oc2c1
 : i	1.6%	.
CCS(=O)(=O)n1nc(-c2ccc(OC)cc2)nc1SC
 : i	3.4%	0.78

Profiles from above. Values in the order: MT1-MMP reporter | Hsc70 ATP site | WNV protease inh
O=S(=O)(Cc1ccccc1Cl)N1CCN(Cc2ccc3c(c2)OCO3)CC1 in the list: i | -8.0% | -0.58
COc1ccc(C(=O)c2oc3nc(C)cc(C)c3c2N)cc1 in the list: i | -19.1% | 0.7
CCOC(=O)c1c(C)n(C)c2ccc(OC)c(NC(=O)CN3CCSCC3)c12 in the list: i | -0.4% | 0.52
COc1ccc(OC)c(NC(=O)C(CC(=O)O)Cc2ccc(Cl)cc2)c1 (stereo not given) in the list: i | 0.5% | .
COc1cc(NC(=O)C(C)Oc2ccccc2)cc(OC)c1 (stereo not given) in the list: i | 2.6% | -0.38

Remaining list, next part
Order of values – MT1-MMP reporter	Hsc70 ATP site	WNV protease inh
O=C(O)CC1CCCC(c2ccccc2)C1=O (stereo not given)
 : i	-0.9%	0.13
Cc1c(C)n(CC(O)CN2CCOCC2)c2ccccc12 (stereo not given)
 : i	6.0%	0.59
O=C(CSc1ccccc1Cl)c1ccco1
 : i	2.5%	0.59
O=C(c1ccco1)N1CCC(n2nnc3ccccc32)CC1
 : i	8.5%	0.59
CC1=C(C(=O)OCC(C)C)C(c2cc3c(cc2Br)OCO3)NC(=O)N1C (stereo not given)
 : i	-4.6%	-1.1
Cc1nn(Cc2ccccc2)c2c1C(c1ccc(Cl)cc1)C(C#N)=C(N)O2 (stereo not given)
 : i	0.8%	.
CCN(CC)CCCNc1oc(-c2cccc(Cl)c2)nc1C#N
 : i	-7.7%	-0.43
O=C(Nc1cccc(NC(=O)c2ccco2)c1)c1cnccn1
 : i	6.6%	.
CCOc1ccccc1N(C(=O)CNC(=O)c1ccco1)C(C(=O)NC(C)(C)C)c1ccncc1 (stereo not given)
 : i	0.2%	-0.19
COc1ccc2occ(C(=O)c3cccs3)c2c1
 : i	0.6%	.
CCCCC1C(C#N)=C(C)NC2=C1C(=O)CC(C)(C)C2 (stereo not given)
 : i	-4.2%	.
Clc1cccc(NCc2nnc(SCc3ccc(Cl)cc3Cl)o2)c1
 : i	5.2%	.
CCOC(=O)N1CCC(NC(=O)Cn2ncn3c(cc4sc(CC)cc43)c2=O)CC1
 : i	1.9%	-0.21
CC1CCCCN1S(=O)(=O)c1ccc(C(=O)Nc2nnc(-c3ccccc3Cl)o2)cc1 (stereo not given)
 : i	-1.1%	1.41
CCCn1c(C2CC(=O)N(c3cc(OC)ccc3OC)C2)nc2ccccc21 (stereo not given)
 : i	5.2%	-0.76
COc1cccc(OC)c1C(=O)Nc1ccc(NC(=O)c2ccco2)cc1
 : i	-2.6%	-0.78
CCCCNCc1cc(OC)c(OCC(N)=O)cc1Br
 : i	2.0%	.
Cc1ccc(C2CC(c3cccc(C)c3)n3ncnc3N2)cc1 (stereo not given)
 : i	3.1%	-0.89
CC(Sc1nnc2ccccn12)C(=O)Nc1ccc(Cl)cn1 (stereo not given)
 : i	-4.3%	0.36
CCN1CCN(CC(=O)Nc2ccc3c(c2)OCO3)C(=O)C1=O
 : i	1.0%	-0.81
c1ccc2c(c1)ncc1cccn12
 : i	0.7%	1.3
CC(C)c1ccc(NC(=O)C(c2ccccc2)N2CCOCC2)cc1 (stereo not given)
 : i	1.6%	0.17
O=C(CSc1nnc(-c2ccncc2)o1)Nc1ccccc1Cl
 : i	-4.7%	-1.39
Oc1ccccc1-c1cc(-c2ccco2)[nH]n1
 : i	1.3%	.
C=C(C)Cn1c(CCCNC(=O)C(C)(C)C)nc2ccccc21
 : i	-1.6%	0.56
CCCCSc1cc(C)nc2ncnn12
 : i	4.2%	0.22
CCOC(=O)N1CCN(S(=O)(=O)N(C)C)CC1
 : i	1.3%	0.37
OC(COCc1ccccc1)CN1CCN(c2ccccc2)CC1 (stereo not given)
 : i	0.0%	0.58
O=C1[C@H]2[C@@H](C(=O)N1c1cc(Cl)cc(Cl)c1)[C@]1(C(=O)Nc3ccccc31)N1CCC[C@@H]21
 : i	-13.6%	-0.86
Cc1cc(Oc2cnn(C(C)(C)C)c(=O)c2Cl)cc(C(C)C)c1
 : i	-2.2%	.
COc1ccc(OC)c(-c2cc(C(=O)NCc3cccs3)no2)c1
 : i	-9.7%	0.21
O=C(C1CCN(c2nnc(-n3cccc3)s2)CC1)N1CCN(c2cccc(C(F)(F)F)c2)CC1
 : i	1.9%	-1.44
N#Cc1c(N2CCOCC2)nc(-c2ccco2)c2c1CCCC2
 : i	-1.0%	0.15
O=C(Cc1cc(=O)oc2cc(O)ccc12)NCC1CCC(C(=O)O)CC1 (stereo not given)
 : i	2.0%	4.44
COc1ccccc1CN(Cc1cc2cc(C)ccc2[nH]c1=O)Cc1nnnn1CC1CCCO1 (stereo not given)
 : i	-2.8%	1.93
Cc1cnc(-c2nnc(N(C)C(=O)c3ccccn3)s2)cn1
 : i	-8.2%	-1.72
CC1(C)Cc2noc(N)c2C(C)(C)N1OC(=O)c1ccco1
 : i	-2.4%	-0.25
N#Cc1ccccc1NC(=O)CC1CCCCC1
 : i	-2.3%	.
COC(=O)c1ccc(NC(=O)C2CCN(S(C)(=O)=O)CC2)cc1
 : i	2.8%	-1.23
O=C(c1csc2c1CCCC2)n1cccn1
 : i	-6.1%	-0.05
CC1SC(c2ccc(Cl)cc2)NC1=O (stereo not given)
 : i	4.4%	.
CCOC(=O)C1=C(C)NC2=C(C(=O)CC(C)(C)C2)C1c1ccc2c(c1)CCCN2C (stereo not given)
 : i	0.4%	-0.42
CCN(C(=O)CSc1nnc(Cn2nnc3ccccc32)o1)c1nc(C)cs1
 : i	2.3%	.
CCCCNC(=O)COC(=O)c1cc(C)nc2ccccc12
 : i	1.4%	.
Cc1cc(NC(=O)c2c(F)c(F)c(F)c(F)c2F)no1
 : i	5.2%	-1.13
NC(=O)c1cc(-c2ccccc2)sc1NC(=O)Cc1ccc(S(=O)(=O)N2CCOCC2)s1
 : i	-24.0%	-1.37
Cn1c(SCc2nc(-c3ccccc3)no2)nnc1-c1cccs1
 : i	0.7%	.
CN(C)c1ccc(CNC(=O)C2CCN(S(=O)(=O)c3ccc4c(c3)CCC(=O)N4)CC2)cc1
 : i	2.4%	0.5
CCCCCc1c(C)nc(Nc2ccc(F)cc2)[nH]c1=O
 : i	-3.8%	-0.2
